High-throughput results deposited in PubChem by several laboratories.
Sa RN4220 lethal: kills Staphylococcus aureus RN4220; S. aureus RN4220 growth, OD600, 16 h; inhibition, % (no concentration beside the values); 330,000 compounds, 0.33% hits;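 active = z-score of -3 or lower and OD600 up to 0.18 on both plates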;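 also: plate controls were untreated cells for no effect and reference antibiotic for full effect; stock transfer was 100 nL into about 80 µL; one replicate is shown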
Bead autofluor: counter-screen for toxin protease inhibitors: compound fluorescence; fluorescence intensity (concentration not given with the values); 360,000 compounds, 3.1% hits; compound autofluorescence counterscreen, microsphere flow cytometry; hits give high values; AID 624483;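 active = at least 3 SD above the mean of all compounds, about 16000 in these data; inconclusive = too few beads counted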;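 also: 100 nL of 1 mM stock went into each well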
BJeLR viability: kills HRASV12-expressing BJeLR cells. BJeLR (HRASV12) viability, CellTiter-Glo ATP luminescence, 48 h; reference of the scale not given here. AID 1554. 300,000 compounds, 0.17% hits. inhibition, % (concentration not given with the values);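 active = replicate mean above 50%; inconclusive = above 50% but judged a plate artefact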;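 also: 50 nL library stock added to about 25 µL; numbers are from one replicate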
Sa ugtP lethal: kills S. aureus RN4220 lacking UgtP. S. aureus RN4220 ugtP deletion, OD600 growth, 16 h; some inactives read as strong as hits. growth inhibition, % (concentration not given with the values). 330,000 compounds, 0.54% hits;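 active = z-score under -3 and OD600 up to 0.15 on both plates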;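 also: plate controls were untreated wells for no effect and antibiotic for full effect; wells of about 80 µL received 100 nL stock; the first replicate is given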
PrP UTR inh: inhibition of PrP 5' UTR reporter expression; cell-based PrP 5' UTR mRNA reporter, plate reader; inhibition, % (test concentration not listed); 340,000 compounds, 0.35% hits; AID 488862;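 active = every replicate at 50% or more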;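 also: 0 = median of the neutral control wells; tested in H4 reporter cells; numbers are from one replicate; inactives centre near -14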
Mtb hypoxia rep: inhibitors of hypoxia-regulated fluorescent reporter in Mycobacterium tuberculosis. M. tuberculosis hypoxia-regulated fluorescent reporter, fluorescence. fluorescence inhibition, % (test concentration not listed). 300,000 compounds, 0.1% hits. AID 1159583;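 active = 35 to 45% if threefold the growth effect, above 45% if 1.5-fold the growth effect; inactive = the rest, general growth blockers included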;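 also: wells of about 50 µL received 100 nL stock; 0% = vehicle wells and 100% = reference inhibitor wells; whole bacteria with a GFP reporter of the hypoxia response; strong numbers were not always called active; many hits fall short of the cut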
Mtb hypoxia rep growth: also measured in Mtb hypoxia rep; calls as there; growth inhibition, %; measured here: M. tuberculosis growth (absorbance);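 0% = vehicle and 100% = reference antibiotic; read after six days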
Active calls of the source: *; ? = inconclusive; / = no result given.

1	COc1ccc(C)cc1NC(=O)c1ccc(-c2ccc(C(C)=O)cc2)o1
2	COCCN=C1OC(=O)N2C(=O)C3=C4[C@@H](C[C@H]5C(=O)N(c6ccccc6)C(=O)[C@H]5[C@H]4[C@@]12Cc1ccccc1)[C@H]1C(=O)N(c2ccccc2)C(=O)[C@H]1[C@H]3C
3	COc1ccc(C(=O)Nc2ccc(NC(=O)Cc3ccccc3)cn2)cc1
4	COc1ccccc1CC(=O)Nc1ccc2c(C)cc(=O)oc2c1
5	COc1cc(CNc2ccc(N3CCOCC3)cc2)cc(Br)c1OC
6	CC(Sc1ccccn1)C(=O)Nc1ccc2c(c1)OCO2 (stereo unspecified)

entry no.,1,2,3,4,5,6
Sa RN4220 lethal,-22,/,-1.9,2.6,/,1.1
Bead autofluor,3984,3773,3695,4150,2077,3811
BJeLR viability,-11,-5,0,0,24,/
Sa ugtP lethal,10,/,1,7,/,0
PrP UTR inh,-12,6,-13,-33,-9,-10
Mtb hypoxia rep,8,/,3,3,/,7
Mtb hypoxia rep growth,0,/,-8,-9,/,1

7	Cc1cccc2c1OCC/C2=N\NC(=O)COc1ccccc1
8	CCOC(=O)C1C(=O)NC2(C)CC1c1cc(OC)ccc1O2 (stereo unspecified)
9	COc1ccc(/C=N/Nc2ccc([N+](=O)[O-])cc2)cc1Cn1cc([N+](=O)[O-])cn1
10	Clc1ccccc1-c1nc(-c2cccnc2)no1
11	N#Cc1ccccc1COC(=O)CCN=C1NS(=O)(=O)c2ccccc21
12	N#CCSc1ccccc1NC(=O)CN1C(=O)C(=O)N(Cc2ccccc2)C1=O

entry no.,7,8,9,10,11,12
Sa RN4220 lethal,/,4.3,/,8.7,-0.1,3.6
Bead autofluor,20669*,10066,2750,3189,2811,3082
BJeLR viability,-8,3,4,-1,/,/
Sa ugtP lethal,/,5,/,-4,-2,6
PrP UTR inh,-33,-10,-22,-116,-2,11
Mtb hypoxia rep,/,12,/,/,-3,7
Mtb hypoxia rep growth,/,1,/,/,6,8

13	CCn1c(SCC(=O)Nc2cc(C)c(Cl)cc2OC)nnc1-c1ccco1
14	O=C(NC1CCCC1)C(c1ccc(F)cc1)N(C(=O)c1csnn1)C1CCCC1 (stereo unspecified)
15	O=c1c2ccccc2nc2sc(Nc3cccc(Cl)c3)nn12
16	CCn1cc(C(=O)N(C)Cc2ccc(OC(F)F)cc2)c(=O)c2ccc(C)nc21
17	COc1ccc(NC(=O)CSc2nc3ccncc3[nH]2)c(OC)c1
18	O=C(Nc1nc2ccccc2[nH]1)C1CCCO1 (stereo unspecified)

entry no.,13,14,15,16,17,18
Sa RN4220 lethal,-3.0,3.7,2.3,1.8,1.0,5.3
Bead autofluor,5866,5481,3738,4185,6225,7926
BJeLR viability,-2,-8,/,-8,3,-10
Sa ugtP lethal,-9,11,1,4,0,13
PrP UTR inh,-13,20,-58,-28,3,-60
Mtb hypoxia rep,-13,12,8,6,-4,4
Mtb hypoxia rep growth,-1,3,8,0,5,6

19	Cc1cc(C(=O)Cn2nnc(-c3ccc(Cl)cc3)n2)c(C)n1CC1CCCO1 (stereo unspecified)
20	COc1ccccc1N1CCN(C(=O)Cn2ncc3c([nH]c4ccccc43)c2=O)CC1
21	O=C(O)c1ccc(NN=Cc2cc3ccccc3nc2Cl)cc1
22	Cn1c2c(c(=O)n(C)c1=O)CN(Cc1ccco1)CN2
23	CC(C)CN(C(=O)COC(=O)CCc1nc2ccccc2s1)c1c(N)n(Cc2ccccc2)c(=O)[nH]c1=O
24	O=C(CSc1nc2ccccc2o1)Nc1ccccc1N1CCOCC1

entry no.,19,20,21,22,23,24
Sa RN4220 lethal,2.4,6.2,-0.9,1.4,/,5.0
Bead autofluor,5373,5426,/,/,4395,2498
BJeLR viability,-2,4,/,6,11,-3
Sa ugtP lethal,6,4,-1,1,/,5
PrP UTR inh,-33,-30,/,-8,-6,-9
Mtb hypoxia rep,6,3,-7,9,/,/
Mtb hypoxia rep growth,7,0,-6,15,/,/

25	COc1cccc(-c2nc(CS(=O)(=O)CC(=O)Nc3ccccc3Cl)c(C)o2)c1
26	CCOCCCNC(=O)CCc1ccc(S(=O)(=O)Nc2ccc(C)cc2)cc1
27	NC(=O)CC[C@H](NC(=O)c1ccc(F)cc1)C(=O)OCC(=O)Nc1c(F)c(F)c(F)c(F)c1F
28	CN(C)C(CNC(=O)c1cccc(S(=O)(=O)N2CCN(c3ccc(F)cc3)CC2)c1)c1ccccc1 (stereo unspecified)
29	CC1=NNC(=O)C1C(c1ccccc1)C(C#N)C#N (stereo unspecified)
30	COc1cccc(/C=N/Nc2ccc(C(=O)O)cc2)c1O

entry no.,25,26,27,28,29,30
Sa RN4220 lethal,5.1,4.1,5.3,-2.6,2.6,/
Bead autofluor,5512,2530,1922,4571,11133,3980
BJeLR viability,4,6,0,/,-6,28
Sa ugtP lethal,0,4,-2,0,7,/
PrP UTR inh,3,-8,-15,8,11,88*
Mtb hypoxia rep,6,14,2,-16,8,/
Mtb hypoxia rep growth,15,2,0,0,8,/

31	CCCSCCCNC(=O)Cn1nc(CC)n2c(cc3c(OC)cccc32)c1=O
32	O=C(NCc1ccccc1F)C1CCCN1C(=O)NCc1ccccc1 (stereo unspecified)
33	O=C1NC(=S)SC1=C1CCCCCC1
34	CCOC(=O)N1CCC(NC(=O)CS(=O)Cc2nc(-c3ccc(C)cc3)oc2C)CC1 (stereo unspecified)
35	CCOC(=O)c1c(C)[nH]c(C(=O)COC(=O)c2c(CC)noc2C)c1C
36	COc1ccc(/C=C/C(=O)NC(=S)N2C[C@H]3C[C@H](C2)c2cccc(=O)n2C3)cc1

entry no.,31,32,33,34,35,36
Sa RN4220 lethal,3.0,3.2,-0.6,-3.7,-3.6,3.7
Bead autofluor,3956,4720,3317,5912,/,4091
BJeLR viability,13,-8,-7,4,/,0
Sa ugtP lethal,3,5,-19,-1,-12,0
PrP UTR inh,-15,-14,-17,-10,-9,15
Mtb hypoxia rep,17,16,17,5,8,/
Mtb hypoxia rep growth,4,1,7,9,15,/

37	O=C(/C=C/c1ccco1)Nc1nc(-c2ccccn2)cs1
38	Cc1cc(N/N=C/c2ccc(O)cc2O)nc(-c2ccccc2O)n1
39	COc1ccccc1NC(=O)c1cc2c(CO)cnc(C)c2oc1=Nc1ccc(OC)c(OC)c1
40	CCN(c1ccccc1C)S(=O)(=O)c1cc2c3c(c1)CCC(=O)N3CCC2
41	COCCNC(=S)N1CCN(C(c2ccccc2)c2ccccc2)CC1
42	COc1ccc(NC(=O)CCN2C(=O)c3ccc([N+](=O)[O-])cc3C2=O)c(OC)c1

entry no.,37,38,39,40,41,42
Sa RN4220 lethal,3.6,/,0.7,9.2,-1.1,0.2
Bead autofluor,4119,2492,4151,5639,6048,8525
BJeLR viability,3,26,0,4,2,-5
Sa ugtP lethal,-2,/,-3,-2,18,6
PrP UTR inh,-30,2,-1,-16,-13,-18
Mtb hypoxia rep,-3,/,4,17,11,7
Mtb hypoxia rep growth,8,/,-2,1,6,-6

43	Cn1c(SCC(=O)Nc2cccc(S(=O)(=O)NC3=NCCCCC3)c2)nnc1-c1ccncc1
44	CC(Sc1nc2ccccc2c(=O)n1CCc1ccc(S(N)(=O)=O)cc1)C(=O)NC(N)=O (stereo unspecified)
45	CCCc1c(C(=O)Nc2ccc(F)cc2C)cnn1-c1ccccc1
46	c1coc(-c2nnc3sc(-c4cccs4)nn23)c1
47	Cc1cccc(-n2c(=O)[nH]c3c(C(N)=O)nc(CC(C)C)nc32)c1
48	CCOCCCN(C(=O)c1ccco1)C(C(=O)NC1CCCC1)c1ccc(OC)cc1 (stereo unspecified)

entry no.,43,44,45,46,47,48
Sa RN4220 lethal,0.7,-0.4,2.2,-0.1,0.9,6.5
Bead autofluor,3444,6039,4025,9731,3152,?
BJeLR viability,2,-2,-7,/,0,-9
Sa ugtP lethal,11,1,8,-11,0,6
PrP UTR inh,-18,-2,-1,-10,-12,2
Mtb hypoxia rep,3,17,18,-2,3,-3
Mtb hypoxia rep growth,4,7,3,6,3,-3

49	COc1ccc(CN(CC(O)COCc2ccccc2)S(=O)(=O)c2ccccc2Br)cc1OC (stereo unspecified)
50	CN(c1ccccc1)S(=O)(=O)c1cccc(NC(=O)CSc2nnc(N)s2)c1
51	O=C1c2ccccc2C(=O)N1CCCOc1ccccc1
52	C=C(C)COc1ccc(-c2[nH]ncc2-c2ccc(OC)cc2)c(O)c1
53	COc1ccc(OC)c2c(C)cc(N3CCN(C(=O)c4ccc(F)cc4)CC3)nc12
54	COc1ccc(C2CC(C(F)(F)F)n3nc(C(=O)O)cc3N2)cc1OC (stereo unspecified)

entry no.,49,50,51,52,53,54
Sa RN4220 lethal,7.5,3.9,2.3,-12,-8.8,3.5
Bead autofluor,3003,2248,5101,4678,2304,15320
BJeLR viability,/,6,0,3,13,-1
Sa ugtP lethal,-11,9,-4,0,-12,8
PrP UTR inh,-24,-11,-39,-7,-14,-1
Mtb hypoxia rep,-6,6,/,18,/,3
Mtb hypoxia rep growth,3,4,/,10,/,-6

55	Cc1ccc(-n2ncc3c2CCCC3NC(=O)CCc2cnccn2)cc1C (stereo unspecified)
56	O=S(=O)(c1ccc2c(c1)OCCO2)N1CCC(n2nnc3cc(C(F)(F)F)ccc32)CC1
57	Cc1nc(N2CCN(C(=O)c3cnccn3)CC2)c2c3c(sc2n1)CC(C(C)(C)C)CC3 (stereo unspecified)
58	CSc1ccc(C=NNC(=O)CNc2ccc3ccccc3c2)cc1
59	Cn1c(=O)n(C)c2cc(NC(=O)COc3ccc(F)cc3)ccc21
60	CN(C)S(=O)(=O)c1ccc2oc(SCC(=O)c3c(N)n(C4CC4)c(=O)[nH]c3=O)nc2c1

entry no.,55,56,57,58,59,60
Sa RN4220 lethal,3.9,-3.1,5.0,-12,5.7,3.5
Bead autofluor,5854,?,4525,/,3850,7738
BJeLR viability,-1,-11,-5,/,-3,/
Sa ugtP lethal,3,2,6,-11,6,1
PrP UTR inh,-8,1,-11,/,-16,-39
Mtb hypoxia rep,10,6,18,3,5,11
Mtb hypoxia rep growth,-30,4,6,-3,-2,3

61	CCc1nc2sc3ccccc3c(=O)c2c(=O)n1Cc1ccc(OC)cc1
62	O=[N+]([O-])c1cc(C=NNc2ccccn2)ccc1Cl
63	Cc1ccccc1OCc1occc1C(=O)Nc1cccc(-n2cnnn2)c1
64	Cc1cccc(OCC(=O)NNC(=O)CCCCC(=O)NNC(=O)COc2cccc(C)c2)c1
65	COc1ccc(CNC(=O)CCc2nc(-c3ccccc3F)no2)c(OC)c1

entry no.,61,62,63,64,65
Sa RN4220 lethal,2.7,5.7,-5.1,3.3,-7.1
Bead autofluor,/,/,4422,5268,2801
BJeLR viability,-13,/,9,/,5
Sa ugtP lethal,-1,7,-7,4,-15
PrP UTR inh,-7,/,-20,-15,-5
Mtb hypoxia rep,4,-4,0,10,/
Mtb hypoxia rep growth,10,0,8,3,/

Grouped by structure, the entries above with a furan ring, fused or not
1	COc1ccc(C)cc1NC(=O)c1ccc(-c2ccc(C(C)=O)cc2)o1
13	CCn1c(SCC(=O)Nc2cc(C)c(Cl)cc2OC)nnc1-c1ccco1
22	Cn1c2c(c(=O)n(C)c1=O)CN(Cc1ccco1)CN2
37	O=C(/C=C/c1ccco1)Nc1nc(-c2ccccn2)cs1
46	c1coc(-c2nnc3sc(-c4cccs4)nn23)c1
48	CCOCCCN(C(=O)c1ccco1)C(C(=O)NC1CCCC1)c1ccc(OC)cc1 (stereo unspecified)
63	Cc1ccccc1OCc1occc1C(=O)Nc1cccc(-n2cnnn2)c1

entry no.,1,13,22,37,46,48,63
Sa RN4220 lethal,-22,-3.0,1.4,3.6,-0.1,6.5,-5.1
Bead autofluor,3984,5866,/,4119,9731,?,4422
BJeLR viability,-11,-2,6,3,/,-9,9
Sa ugtP lethal,10,-9,1,-2,-11,6,-7
PrP UTR inh,-12,-13,-8,-30,-10,2,-20
Mtb hypoxia rep,8,-13,9,-3,-2,-3,0
Mtb hypoxia rep growth,0,-1,15,8,6,-3,8
